Screening data deposited in PubChem BioAssay by several laboratories.
PABP FP inh: blocks human PABP binding to poly(A) RNA | P11940 | fluorescence polarization | inhibition, % at 35 µM | 290,000 compounds, 1% hits;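 active means 50% or more with normal probe brightness, or confirmed in later tests; inconclusive means above 50% with abnormal brightness, or retests that disagree; inactive means below 50% or failed in later tests; about a fifth of its hits are not listed in these tables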;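 further: calls also rest on retests at 20 µM and on dose response follow-up; controls were probe without protein and protein plus probe with vehicle; some compounds called inactive have numbers as strong as hits; many hits fall short of the cut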
Target sequence (P11940 whole entry, looked up): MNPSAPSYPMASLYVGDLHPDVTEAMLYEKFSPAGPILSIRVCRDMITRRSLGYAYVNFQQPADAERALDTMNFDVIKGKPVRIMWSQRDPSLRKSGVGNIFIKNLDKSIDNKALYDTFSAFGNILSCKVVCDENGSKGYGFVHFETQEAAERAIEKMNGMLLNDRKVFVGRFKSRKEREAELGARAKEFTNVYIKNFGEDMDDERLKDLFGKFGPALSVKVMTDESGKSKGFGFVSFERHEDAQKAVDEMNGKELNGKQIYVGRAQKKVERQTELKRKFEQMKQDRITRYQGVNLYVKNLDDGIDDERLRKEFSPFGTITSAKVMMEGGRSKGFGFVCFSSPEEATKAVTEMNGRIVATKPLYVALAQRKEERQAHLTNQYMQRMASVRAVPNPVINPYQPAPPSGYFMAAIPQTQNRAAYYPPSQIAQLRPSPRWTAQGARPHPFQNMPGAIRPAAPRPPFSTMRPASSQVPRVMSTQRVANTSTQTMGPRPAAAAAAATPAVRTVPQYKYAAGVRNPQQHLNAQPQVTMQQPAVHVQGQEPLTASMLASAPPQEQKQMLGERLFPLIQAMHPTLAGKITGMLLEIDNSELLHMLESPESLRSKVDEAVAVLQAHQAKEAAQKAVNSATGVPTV
eIF4H inh: inhibitors of RNA binding by human eIF4H; inhibition, % at 35 µM; 290,000 compounds, 0.94% hits; eIF4H fluorescence polarization binding assay; Q15056;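 active means 50% or more with normal probe brightness, or confirmed in later tests; inconclusive means above 50% with abnormal brightness, or retests that disagree; inactive means below 50% or failed in later tests; about a fifth of its hits are not listed in these tables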;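 further: calls also rest on retests at 20 µM and on dose response follow-up; 0% = protein and probe with vehicle and 100% = probe without protein; strong numbers were not always called active; many hits fall short of the cut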
CSC inhib: cancer stem cell inhibition | cancer stem cell-like cells viability, luminescence | 300,000 compounds, 1.1% hits | inhibition, % at 7.5 µM;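 active means mean at 75% or more and at least half the replicates too; inconclusive means mean and replicates disagree; tested in HMLE shEcad cells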;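 further: 0% = median of negative and 100% = median of positive control wells; the first replicate is given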
Rce1 inh: yeast Ras-converting enzyme inhibition. Q03530. yeast membranes, quenched prenylated peptide cleavage fluorescence. calls only. 290,000 compounds, 0.27% hits. AID 2563;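 active means fall in fluorescence gain of 50% or more versus controls, with final raw signal at or below 3038400; inconclusive means same 50% fall but final raw signal above 3038400; inactive means fall in fluorescence gain under 50%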;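 further: plate controls were neutral control wells for no effect and wells lacking membranes for full effect; tested at 10 µM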
HIV Env fusion: inhibitors of HIV Env-mediated cell fusion. HeLa-JRFL Env/CEM21 cell fusion, luciferase. inhibition, % at 12.3 µM. 360,000 compounds, 1.1% hits. AID 651610;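 active means mean replicate inhibition score of at least 50 and every replicate individually at or above 50; inconclusive means only one of the two criteria met; inactive means mean below 50 and not all replicates reaching 50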;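 further: 0% = plate neutral controls and 100% = maraviroc near 300 nM; one replicate is shown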
MT1-MMP act inh: inhibitors of human MT1-MMP activation; AID 651647; 360,000 compounds, 0.061% hits; HT1080 RFP-PRO-GFP cells, GFP/RFP ratio fluorescence, overnight; percent of plate control window, DMSO zero; P50281; GFP/RFP ratio change, % at 20 µM;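 active means GFP/RFP ratio change of at least 30% with cell ATP level not reduced by more than half and red fluorescence within 50% of control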; further: strong numbers were not always called active
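system = RFP-PRO-GFP reporter HT1080 cells | dosing = 20 µM single dose, 1% DMSO | timing = overnight cell settling, then overnight compound exposure, 37 °C, 5% CO2 | read-out basis = GFP/RFP fluorescence ratio | controls = DMSO and RFP-L50D-GFP cell wells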
UUG fidelity: modulators of start codon recognition fidelity in yeast. activity score, % at 18.7 µM. 350,000 compounds, 0.13% hits. S. cerevisiae UUG-firefly luciferase reporter, luminescence/redox ratio;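 active means replicate mean at a twofold rise or more, about +100% in these data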;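 further: firefly luciferase made from a UUG start codon reports start codon fidelity; reporter light over untreated wells divided by growth signal over untreated wells; some hits fall short of that in this replicate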
eIF4H inh retest: further read-out of eIF4H inh, marked with its call; inhibition, %; compound at 20 µM; confirmation average;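 mean of two retest wells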
PABP FP inh retest: also measured in PABP FP inh; calls as there; inhibition, %; compound at 20 µM; confirmation repeats;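 mean of two retest wells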
MT1-MMP act inh RFP: recorded beside MT1-MMP act inh, whose call it bears; RFP signal change, %; measured here: RFP expression control read;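 0 = vehicle wells; hits needed this value within 50% of zero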
Numbers without * were called inactive; i = inactive; ? = inconclusive; / = no result given.

SMILES | PABP FP inh | eIF4H inh | CSC inhib | Rce1 inh | HIV Env fusion | MT1-MMP act inh | MT1-MMP act inh RFP | UUG fidelity | others
O=C(Nc1cccc(F)c1)C1CCCN(S(=O)(=O)c2cccc3cccnc23)C1 (stereo not drawn) | -8 | -11 | 4 | i | 5 | 0 | -4 | -11
COc1cccc(-c2nc(CS(=O)(=O)CC(=O)NCCc3cc(OC)ccc3OC)c(C)o2)c1 | -3 | 0 | -21 | i | -2 | 3 | 1 | -11
CC(C)OP(=O)(c1ccc(N(C)C)cc1)C(O)c1ccc(N(C)C)cc1 (stereo not drawn) | 5 | 0 | -1 | i | 25 | 1 | 1 | -4
CCn1c(=O)cc(OCC(=O)N(C)C2CCCCC2)c2ccccc21 | 3 | -6 | -13 | i | 4 | 8 | 7 | -1
CCC(=O)c1cc(F)c(N2CCN(S(=O)(=O)c3ccc(C)cc3)CC2)cc1C | 0 | -14 | 34 | i | 36 | -5 | -8 | -6
CCc1ccccc1NC(=O)C1COc2ccccc2O1 (stereo not drawn) | -3 | -4 | 17 | i | -10 | 4 | 0 | -10
O=C(C[n+]1ccccc1)N/N=C/c1ccccc1C(F)(F)F | -2 | -3 | -25 | i | -5 | 0 | 0 | -8
CCCCNC(=S)NNC(=O)c1sccc1C | 0 | 4 | -15 | i | / | -4 | -1 | -16
COC(=O)c1ccc(C)c(NC(=O)CCc2ccc(OC)cc2)c1 | -3 | -3 | -6 | i | 8 | 3 | 1 | /
COc1ccc(C(=O)NNS(=O)(=O)c2ccc(C)cc2)cc1 | -13 | -3 | 15 | i | / | 0 | 4 | /
Cc1cc(NC(=O)CN2C(=O)NC(Cc3ccccc3)C2=O)no1 (stereo not drawn) | -8 | 0 | -7 | i | / | 2 | 2 | -38
COc1ccc(C)cc1NC(=O)CNCc1cccs1 | -1 | -9 | -6 | i | 10 | 0 | -3 | 1
COc1ccc(NC(=O)CC2SC(=NCc3ccccc3OC)NC2=O)cc1 (stereo not drawn) | 7 | 3 | / | i | 27 | -7 | 0 | 5
CCOc1ccc(NC(=O)CN(C)C(=O)c2cc3c(s2)CCC(C)C3)cc1OCC (stereo not drawn) | / | / | -3 | / | 12 | 3 | 5 | 4
COc1ccc(S(=O)(=O)NN(C)c2ncc(C(F)(F)F)cc2Cl)cc1 | -1 | 9 | 0 | i | -25 | -4 | -3 | /
CCN(CC)c1ccc(C=Nc2ccc(C)cc2C)c(O)c1 | -3 | -3 | 1 | i | 9 | -7 | -3 | /
Cc1cccc(Cn2ncc(Cl)c(Cl)c2=O)c1 | 2 | 4 | -11 | i | / | -16 | -7 | -3
Cc1noc(C)c1COC(=O)c1ccccc1NC(=O)c1ccco1 | 26 | -6 | 8 | i | 4 | -1 | -1 | -12
O=C(NCc1cccs1)c1csc([C@@H]2C[C@H](O)[C@@H](CO)O2)n1 | / | / | / | / | 8 | -1 | 2 | -16
O=C(NCC(O)c1ccccc1)Nc1cccs1 (stereo not drawn) | 9 | -4 | -4 | i | 17 | -3 | 0 | -9
COc1cc2c(cc1OC)CN(C(=O)c1cc(S(=O)(=O)N3CCOCC3)ccc1Cl)CC2 | 5 | -6 | 2 | i | 9 | -3 | 1 | -3
COc1ccc(C(=O)N(C)CC(O)c2ccccc2)cc1OC1CCN(C(C)=O)CC1 (stereo not drawn) | -3 | -4 | 5 | i | -20 | -1 | 1 | 7
O=C(Cc1ccc2c(c1)OCCO2)N/N=C/c1ccco1 | / | / | / | / | 1 | 2 | -3 | -16
Cc1cc(NC(=O)Cc2ccccc2C)no1 | 0 | -4 | 2 | i | -32 | 0 | -3 | -11
OCCC1CN(Cc2cnc(N3CCCC3)s2)CCN1Cc1ccccc1 (stereo not drawn) | 1 | -5 | 10 | i | -17 | 3 | 2 | -17
Cn1c(=O)[nH]c(=O)c2c1nc(CN1CCOCC1)n2Cc1ccc(F)cc1 | -1 | -10 | 1 | / | 5 | 1 | 5 | -34
Cc1cc(-c2nnc(SCC(=O)Nc3ccccc3F)n2N)n[nH]1 | -8 | 0 | -8 | i | 10 | 1 | 6 | -21
CCc1cc2c(=O)oc(-c3ccc(F)cc3)nc2s1 | -7 | 1 | -10 | i | -5 | 0 | -3 | -20
Cc1ccc(-n2nnnc2SCC(=O)Nc2ccc(N3CCN(C)CC3)cc2)c(C)c1 | -3 | -5 | 41 | i | 11 | 1 | -6 | 3
CN(C(=O)Cn1c(=O)oc2ccccc21)C1CCCCC1 | / | / | -2 | / | / | 3 | 9 | -5
O=S(=O)(c1cccc(Cn2nnc(-c3ccccc3)n2)c1)N1CCOCC1 | / | / | -14 | / | 11 | 4 | -12 | -10
CC(=O)c1c(N2CCCCC2)nc(=S)n(Cc2ccccc2)c1C | -2 | 8 | -19 | i | -86 | 2 | 1 | -17
CN(C)CCNC(=O)Nc1ccc([N+](=O)[O-])cc1 | -19 | 1 | -4 | i | 0 | -3 | 4 | -5
CCc1nnc(NS(=O)(=O)c2ccc(N/C=C\C(=O)c3ccc(C)cc3)cc2)s1 | 12 | 5 | / | i | / | 4 | 5 | 0
COc1ccc(S(=O)(=O)N(CC(N)=O)C2CCCCC2)cc1Cl | -4 | 4 | -7 | i | / | 0 | -1 | -10
Clc1ccc(-c2nc3n(n2)Cc2ccccc2-3)cc1 | 13 | 0 | 24 | i | -377 | 1 | 3 | /
O=C(CCc1nnc(Cc2ccc3c(c2)OCO3)o1)N(CC1CCC1)CC1CCCO1 (stereo not drawn) | -1 | -7 | -7 | i | 4 | -1 | 0 | -11
O=C(CCCN1C(=O)/C(=C/c2ccco2)SC1=S)Nc1cccc(C(=O)O)c1 | 96* | 94* | -5 | i | -2 | 10 | 12 | /
Cc1ccc2c(c1)N(CC(=O)NCCCN1CCCCC1C)C(=O)c1cccnc1O2 (stereo not drawn) | -8 | -6 | -18 | i | 7 | 0 | 1 | -17
Cc1ccc(-c2nnc(N(C)C(=O)c3ccncc3)s2)cn1 | 3 | -15 | -6 | i | 8 | -1 | 10 | -10
OC(c1ccc(F)cc1)c1nc(-c2ccc(Cl)cc2)cs1 (stereo not drawn) | / | / | / | / | 5 | 6 | -1 | -11
O=C(CN1C(=O)S/C(=C/c2cccs2)C1=O)N1CCOCC1 | 1 | -10 | 3 | i | / | 5 | 2 | -30
COc1ccc(S(=O)(=O)N2CCCC2)cc1C(=O)N1CCOCC1 | -1 | -7 | -7 | i | 6 | 3 | 4 | /
Cc1cc(NC(=O)CSCC(=O)OC(C)C(=O)N(C)Cc2ccccc2)no1 (stereo not drawn) | / | / | -19 | i | 7 | 3 | 2 | 7
CN(C(=O)COc1cc(=O)n(C)c2ccccc12)c1ccc(Cl)cc1 | 0 | 1 | -3 | i | 7 | 8 | 0 | -7

As a short view, part of the list above.
SMILES | PABP FP inh | eIF4H inh | CSC inhib | Rce1 inh | HIV Env fusion | MT1-MMP act inh | MT1-MMP act inh RFP | UUG fidelity | others
Cc1cc(NC(=O)CSCC(=O)OC(C)C(=O)N(C)Cc2ccccc2)no1 (stereo not drawn) | / | / | -19 | i | 7 | 3 | 2 | 7
CN(C(=O)COc1cc(=O)n(C)c2ccccc12)c1ccc(Cl)cc1 | 0 | 1 | -3 | i | 7 | 8 | 0 | -7

Other structures
SMILES | PABP FP inh | eIF4H inh | CSC inhib | Rce1 inh | HIV Env fusion | MT1-MMP act inh | MT1-MMP act inh RFP | UUG fidelity | others
CCOc1cc(C(c2c(C)[nH][nH]c2=O)c2c(C)[nH][nH]c2=O)ccc1OC(=O)c1cccc([N+](=O)[O-])c1 | 4 | -2 | -10 | i | 9 | -2 | -1 | -1
COCCN(CC(=O)Nc1cccc(C)c1C)C(=O)c1cc(S(=O)(=O)N2CCCC2)ccc1C | / | / | 10 | / | / | -1 | 1 | -7
COc1ccccc1-c1nnc(SCC(=O)NNC(=O)c2ccccc2F)n1C | / | / | -5 | / | -10 | -2 | -1 | -12
Cc1ccnc(N2CCCC(C(=O)Nc3nnc(C)s3)C2)n1 (stereo not drawn) | -1 | -2 | -4 | i | -19 | 3 | 9 | -14
COc1ccc(N=Nc2n(C)c3ccccc3[n+]2C)cc1 | ? | ? | / | i | / | / | / | /
Cc1cc(C(=O)CSc2nc3ccccc3n2CCC#N)c(C)n1Cc1cccs1 | 44 | 64 | -12 | i | -1 | -2 | -3 | 5 | eIF4H inh retest=1;PABP FP inh retest=4
O=C(N/N=C/c1ccc2nccnc2c1)c1ccccc1O | 9 | -5 | 20 | i | -28 | / | / | /
[O-][N+](=C(c1ccccc1)c1ccccc1)c1ccccc1 | / | / | / | / | 1 | 0 | 4 | 8
FC(F)(F)c1cccc(/C=N/NC(=S)NC2CCCCC2)c1 | -2 | 34 | 3 | i | 17 | -3 | -3 | -23
COc1cc(Cl)c(C)cc1NC(=S)NN | 2 | 9 | 9 | i | 10 | 1 | -1 | /
CC1=CC2=NC(=O)CC(C)(C(=O)N(CC(=O)NC(C)(C)C)Cc3cccs3)N2C=C1 (stereo not drawn) | 1 | -2 | -8 | i | / | / | / | -22
Cc1ccc(NC(=O)CSc2nc3ccccc3nc2N2CCOCC2)c(C)c1 | -13 | -14 | -4 | i | / | -6 | -1 | -17
CCOC(=O)COc1cccc2c(=O)n(CC(N)=O)ccc12 | -13 | -2 | 2 | i | -1 | 4 | 7 | -28
Cc1ccc(C(=O)NCc2ccco2)cc1Br | 2 | 2 | / | i | -25 | -4 | 3 | /
CCC(=O)N1CCc2cc(S(=O)(=O)NC(CC(C)C)C(=O)N3CCc4ccccc43)ccc21 (stereo not drawn) | -8 | -5 | / | / | -64 | 0 | 2 | -10
CN(C)C(=O)CCc1ccc2c3c([nH]c2c1)[C@]1(C)[C@@H](C(=O)N2CCCCC2)C[C@H](CC(=O)NCc2ccco2)C(=O)N1CC3 | / | / | / | / | -37 | 1 | 5 | 23
O=C(COc1ccccc1)Nc1ccc(-c2nnc(-c3ccco3)o2)cc1 | -4 | -1 | 1 | i | / | 6 | 3 | -6
CN1C(C(=O)Nc2cccc(O)c2)=CC(c2cccs2)=NS1(=O)=O | 2 | -10 | / | i | -2 | 3 | -3 | -13
CCOC(=O)c1c(C)n(C)c2ccc(O)c(S(=O)(=O)c3ccccc3)c12 | 0 | 7 | 6 | i | / | -3 | 2 | /
NNC(=O)c1ccc(Cn2cccn2)o1 | 4 | 2 | 12 | i | 6 | -1 | 2 | /
CCCN1C2CCCC1CC(NC(=O)NC1CCCCC1)C2 (stereo not drawn) | 8 | -3 | -6 | i | -43 | 4 | 7 | -13
COc1cccc(Oc2cn[nH]c2-c2ccc(OCC(=O)NN)cc2O)c1 | -3 | -12 | -5 | i | 3 | 11 | 3 | /
CCOC(=O)c1cc(-c2ccc3c(c2)OCCO3)n[nH]1 | 8 | -2 | -4 | i | -70 | 4 | 1 | /
COc1ccc(OC)c(C(=O)c2coc3ccc(OC)cc23)c1 | -4 | -6 | -9 | i | / | 4 | 1 | 10
CC(C)(C)OC(=O)NC(Cc1ccccc1)C(=O)O (stereo not drawn) | 1 | 0 | -14 | i | 0 | -5 | 1 | -15
O=C(NCCNc1nccc(C(F)(F)F)n1)c1cccc(C(F)(F)F)c1 | -7 | 12 | -7 | i | 12 | 2 | -3 | -30
COc1ccccc1OCCn1cc(/C=C(\C#N)C(=O)NCc2ccco2)c2ccccc21 | -4 | 3 | 3 | i | 27 | 6 | 1 | -15
CCOC(=O)c1ccccc1-c1csc(N)n1 | 2 | 1 | 10 | i | 4 | 8 | 10 | /
COc1ccc(NC(=O)C(=O)NCC(c2ccco2)N2CCc3ccccc3C2)cc1 (stereo not drawn) | / | / | -3 | i | 5 | -4 | -5 | 15

Some of the compounds tested. The share of hits here may be higher or lower than overall.
